# VDR inh – inhibitors of human vitamin D receptor; P11473; VDR-SRC2-3 peptide fluorescence polarization, 2 h; Potency, µM, without a hit: max response, negative = inhibition, actives largely listed as inhibitors; hit rate 0.93% among 400,000; AID 504847; active means well fitted inhibition curve with a large enough effect; inconclusive means small, poorly fitted or top-dose-only effect, or another doubt; inactive means no such curve, though single readings can be large or run the other way; further: series mostly up to about 120 µM
# Target sequence (P11473 whole entry, looked up): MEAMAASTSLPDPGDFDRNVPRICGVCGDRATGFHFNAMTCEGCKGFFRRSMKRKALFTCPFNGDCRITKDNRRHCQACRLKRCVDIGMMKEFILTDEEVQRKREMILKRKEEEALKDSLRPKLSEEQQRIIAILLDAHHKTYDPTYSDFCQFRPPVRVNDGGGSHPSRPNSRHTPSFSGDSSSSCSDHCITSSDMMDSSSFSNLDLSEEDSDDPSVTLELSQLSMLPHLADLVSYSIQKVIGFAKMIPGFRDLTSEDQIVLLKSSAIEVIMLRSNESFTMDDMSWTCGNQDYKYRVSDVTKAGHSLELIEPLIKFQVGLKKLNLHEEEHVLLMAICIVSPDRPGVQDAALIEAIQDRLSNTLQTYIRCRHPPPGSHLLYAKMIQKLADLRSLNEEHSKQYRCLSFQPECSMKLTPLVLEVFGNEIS
#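 VDR–SRC2-3 interaction, FP format. Cmpds 23 nl via pintool, brief spin, 2 h ambient incubation.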
# Numbers without * were called inactive; ? = inconclusive; & = joins results of further samples. On the % scale 0 is the no-effect control and ±100 the full control effect; potency means the concentration at half of the fitted maximal effect. This is a subset (hit frequency here may not be typical).
Molecule	VDR inh
Cc1cccc(N2CCN(C(=O)c3ccccc3OCc3c(C)noc3C)CC2)c1C	-19%
Cc1ccc(C(=O)NC(=S)NCc2ccco2)cc1	?
Cc1ccc(C2CC(=O)C=C(NCc3ccccc3)C2)cc1 (configuration not stated)	-9%
O=C(Cn1cnc([N+](=O)[O-])n1)c1ccccc1	10%
COc1ccc(C2C(C(=O)c3cccs3)=C(O)C(=O)N2c2cccc(C)n2)cc1 (configuration not stated)	-11%
O=C(CN(Cc1ccccc1Cl)C(=O)c1ccc(CN2CCOCC2)o1)NCC1CCCO1 (configuration not stated)	-5%
CC(Oc1cccc(Cl)c1)C(=O)Nc1ccccc1N1CCCCC1 (configuration not stated)	-28%
Cc1cc(C)cc(-n2ncc3c2CCCC3NC(=O)CCN2CCCC2=O)c1 (configuration not stated)	-3%
O=C(CC1Oc2ccccc2NC1=O)NCc1ccc(F)cc1 (configuration not stated)	-4%
COc1cc(-c2nnn(CC(=O)N3CCOCC3)n2)cc(OC)c1OC	12%
COc1ccc(CCNC(=O)Cc2c(C)c3cc4c(C(C)(C)C)coc4c(C)c3oc2=O)cc1OC	-1%
Cn1cc(-c2nc3cnc(Oc4ccccc4)nc3n(CCC#N)c2=O)c2ccccc21	-3%
CCCCOC(=O)CSc1nc2ccccc2o1	11%
CCOC(=O)C/C(C)=N/NC(=O)COc1ccccc1C	-13%
Cc1c[nH]c(=O)c([N+](=O)[O-])c1	28%
COc1ccc(-c2nc(NC(=O)c3[nH]c(C)c(C(C)=O)c3C)sc2C)cc1	2%
Cc1onc(-c2ccccc2)c1C(=O)N/N=C/C(Br)=C/c1ccccc1	-10%
OC(COc1cccc2ccccc12)CN1CCN(c2ccc(Cl)cc2)CC1 (configuration not stated)	0%
COc1ccc(CNC(=O)C(C)n2c(=O)cc(C)c3c(C)nn(-c4ccccc4)c32)cc1 (configuration not stated)	-1%
COc1ccc(-c2cnnn2-c2ccc(NC(=O)c3ccco3)cc2)cc1OC	7%
Cc1ccc(O)c(NC(=O)CCS(=O)(=O)c2nc(-c3ccc4c(c3)OCO4)cc(C(F)(F)F)n2)c1	50µM*
CCCSc1ncc(Cl)c(C(=O)N(Cc2ccccc2)c2ccc(OC)cc2)n1	6%
N#C/C(=C\c1ccc(N2CCCCC2)c([N+](=O)[O-])c1)c1nn(-c2ccccc2)c(N)c1C#N	-7%
CNc1ccccc1C(C)(C)c1cn(-c2ccc([N+](=O)[O-])cc2)nn1	-1%
CCCC1=C(C(=O)OCC)C(c2ccc(OC)c(CSc3ccccn3)c2)C(C#N)=C(N)O1 (configuration not stated)	?
COCCNC(=O)/C(C#N)=C/c1ccc(-c2ccc(S(=O)(=O)N3CCOCC3)cc2)o1	-18%
CC(SCc1ccccc1)C(=O)N/N=C/c1ccc(OCC(=O)NCc2ccco2)cc1 (configuration not stated)	-8%
C=CCn1c(SCC(N)=O)nc2ccccc2c1=O	-4%
CC(=O)c1cccc(OCC(=O)OCC(=O)Nc2cc(S(=O)(=O)N3CCCCC3)ccc2C)c1	1%
CC[C@]12c3[nH]c4ccc(OC)cc4c3CCN1C(=O)C(CC(=O)NCc1ccco1)C[C@@H]2C(=O)N1CCN(C(=O)c2ccco2)CC1 (some centres not stated)	-19%

# Continuation:
Molecule	VDR inh
O=C(COC(=O)Cn1nnc(-c2ccccc2)n1)Nc1cc(F)ccc1F	3%
O=C1CC(c2ccccc2)CC2=C1C(c1ccco1)n1nc(C(F)(F)F)nc1N2 (configuration not stated)	0%
O=C(Nc1ccc(F)cc1C(F)(F)F)C1CCN(c2ncccn2)CC1	0%
O=C(CNC(=O)C1CCCCC1)OCC(=O)c1ccc(Br)cc1	-14%&-8%
CCOc1ccc(-c2nc(C#N)c(N3CCCCCC3)o2)cc1	-14%
COc1ccccc1CN(C)C(=O)c1ccccc1SCC(=O)N1CCCC1	-20%
Cn1ccnc1SCC(=O)Nc1nc2ccccc2s1	-21%
CCOC(=O)N1CCN(CC(O)COc2ccc(C)c(C)c2)CC1 (configuration not stated)	-1%
COc1ccc(-c2cc(CNS(=O)(=O)c3ccccc3)on2)cc1	23%
O=C1NC(=O)c2cc(NC(=O)c3cccc4ccccc34)ccc21	-15%
CCCCn1c(=O)[nH]c(=O)c2c1nc(-c1ccsc1)n2Cc1ccccc1	3%
COc1ccccc1-c1nc(N(C)Cc2ccco2)c2ccccc2n1	?
COc1ccccc1C(=O)NCCC(=O)Nc1ncccc1C	-13%
COc1ccc(CCNC(=S)Nc2ccc(S(=O)(=O)Nc3ncccn3)cc2)cc1OC	-6%
CCOCC(=O)Nc1nnc(COc2ccc(Cl)cc2)s1	79µM*
O=C(CSc1nnc(-c2ccncc2)n1Cc1ccccc1)NC1CCCCC1	-6%
CCOc1cc(C(=O)NCCCn2ccnc2)cc(OCC)c1OCC	12%
O=C(NCc1ccccc1)C1(C(F)(F)F)CC(CCCO)CCCO1 (configuration not stated)	-3%&14%
O=C(NCc1ccccn1)c1cc(S(=O)(=O)N2CCCCCC2)ccc1Cl	18%
COc1cc2ccccc2cc1C(=O)Nc1ccncc1	3%
COc1ccccc1N1C(=O)C2C(c3ccc(F)cc3)NN(C(=O)c3ccc(C)cc3)C2C1=O (configuration not stated)	10%
Cc1ccc(CN2CCN(C(=O)CCc3ccccc3)CC2)cc1	-10%
COc1ccc(CNc2nc(NCc3ccc(OC)cc3)c3[nH]cnc3n2)cc1	2%
CCOC(=O)c1cc(-c2ccc(C)cc2)n(CC(=O)Nc2cccc(C(C)=O)c2)c1C	-10%
CC1CC(C)CN(C(=O)COC(=O)Cc2ccc(Br)cc2)C1 (configuration not stated)	-13%
COc1ccc(NC(=O)c2c(Cl)nc3ccccn23)cc1	13%
CCCC(=O)N1CCc2[nH]c3ccccc3c2C1	-6%
Cc1ccc(Sc2cc(NCCCO)c([N+](=O)[O-])c3nonc23)cc1	?
CCNC(=O)COC(=O)C1C(C(=O)OCC)=C(C)NC(C)=C1C(=O)OCC	3%
CC(/C=C1\SC(=S)N(NC(=O)c2ccc(C)cc2)C1=O)=C\c1ccccc1	-3%

# Following part.
Molecule	VDR inh
Cc1cc(OC(=O)c2ccccc2Cl)cc(=O)n1C	11%
O=C1CCC(C(=O)N2CCOCC2)CN1Cc1ccc(Cl)cc1 (configuration not stated)	-6%
CC(C)(C)c1nnc(NC(=O)COc2ccc3c(c2)OCO3)s1	-16%
O=C(Nc1ccc(Cl)cc1)c1cccc(N2C(=O)C3C4CCC(C4)C3C2=O)c1 (configuration not stated)	8%
COc1cc(NC(=O)c2ccc(Cl)cc2)c2ncccc2c1	2%
CCCCN(Cc1ccco1)C(=O)c1cc2c(s1)-c1c(C)cccc1OC2	-12%
O=Cc1ccc(OCc2nnc(-c3ccccc3Br)o2)cc1	-6%
CC1CN(S(=O)(=O)c2ccc(F)cc2)CN1C(=O)N1CCOCC1 (configuration not stated)	-6%
Cc1ccc(-c2nnc(NC(=O)c3ccc4c(c3)OCCO4)o2)c(C)c1	10%
CCCN(CCC)CCCNC(=O)C1c2cc(OC)c(OC)cc2C(=O)N(C)C1c1cccs1 (configuration not stated)	8%
O=C(N[C@@H](Cc1ccccc1)C(=O)O)c1ccncc1	-23%
Cc1ccc(N(C)C(=O)C2CCN(S(=O)(=O)c3cn(C)cn3)CC2)cc1	6%
c1ccc(CSc2nc3ncncc3[nH]2)cc1	-3%
CCCNC(=O)c1c(C)nn(-c2cccc(C)c2)c1-n1cccc1	-7%
CCn1c(SCC(=O)Nc2nccs2)nnc1C1CC1	8%
CC(Oc1ccc(Br)cc1)C(=O)Nc1ncn[nH]1 (configuration not stated)	3%
Cc1ccc(O)c(C(=O)CC(=O)c2ccc(C(C)(C)C)cc2)c1	-7%
O=C(C1=C[C@H](c2csc3ccccc23)C[C@H](OCCCCO)O1)N1CCN(Cc2ccccc2)CC1	-11%
Cc1ccc(Cn2c(SC3CCOC3=O)nc3ccccc3c2=O)cc1 (configuration not stated)	19%
Cc1cccc(C)c1NC(=O)C1CCCN1S(=O)(=O)c1ccc(-c2ccc(=O)[nH]n2)s1 (configuration not stated)	?
Cc1ccn2c(C(=O)CSc3ccc(Cl)cc3)c(C)nc2c1	6%
CCOc1ccc(NC(=O)Cn2c(=O)oc3ccccc32)cc1	-9%
COC(=O)c1ccccc1NC(=O)N1CCN(c2ccccc2F)CC1	-14%
CN(C)c1ccc(/C=N/NC(=O)c2ccccc2O)o1	?
CCc1cn(S(=O)(=O)c2ccccc2OC)nc1N	4%
Cc1ccc(-n2c(C)cc(C(=O)OCC(=O)N3CCOCC3)c2C)cc1	0%
CCOC(=O)c1ccc(N=c2sc(C(=O)OC)cc(=O)n2CCCN2CCOCC2)cc1	?
CCOC(=O)c1cnc2c(C)c(Cl)ccc2c1NCCc1ccc(OC)c(OC)c1	-6%
COc1ccc(NC(=S)NCc2cccs2)c(OC)c1	-4%
CN1CCN(NC(=O)c2ccccc2F)CC1	1%

# Four of the compounds above, field by field.
CCCCN(Cc1ccco1)C(=O)c1cc2c(s1)-c1c(C)cccc1OC2
  VDR inh: -12%

CCOC(=O)c1cnc2c(C)c(Cl)ccc2c1NCCc1ccc(OC)c(OC)c1
  VDR inh: -6%

CC(C)(C)c1nnc(NC(=O)COc2ccc3c(c2)OCO3)s1
  VDR inh: -16%

Cc1ccc(-n2c(C)cc(C(=O)OCC(=O)N3CCOCC3)c2C)cc1
  VDR inh: 0%

# (cont.)
Molecule	VDR inh
Cc1nnc(SCC(=O)NNC(=O)c2ccc(Cl)cc2)s1	-15%
COc1cc(C(=O)O)c([N+](=O)[O-])c(OC)c1OC	-9%
CCOc1ccc(S(=O)(=O)NCc2ccncc2)cc1	1%
COc1cccc(NC(=O)CN(C)S(=O)(=O)/C=C/c2ccccc2)c1	-4%
Nc1nc(NC(=O)CCCC(=O)O)nn1-c1ccccc1	6%
C/C=C/C(=O)OCC(=O)Nc1ccc(C)c(S(=O)(=O)N(C)C)c1	23%
CC(=O)c1cccc(NC(=O)c2csc(-n3nc(C)cc3C(F)(F)F)n2)c1	23%
O=C1OCCN1C(=O)[C@H]1[C@H](c2ccc([N+](=O)[O-])cc2)C(c2ccccc2)=NN1c1ccccc1	4%&-3%
N#Cc1cc(-c2ccccc2)nnc1Oc1ccccc1Cl	-9%
COc1ccc2c(C(=O)c3ccc(C)cc3)n(CCC(N)=O)[n+]([O-])c2c1	-2%
COc1ccc(CCNC(=O)Cn2cnc3c(nnn3Cc3ccc(C)cc3)c2=O)cc1OC	1%
COc1cccc(N2C(=O)c3ccncc3C2=O)c1	2%
COc1ccc(CCNC(=O)CCc2c(C)nc3c(c(C)nn3-c3ccc(C)c(C)c3)c2C)c(OC)c1OC	-8%
O=C(COc1ccccc1)NCc1ccc2c(c1)CCN2C(=O)c1ccc(F)cc1	11%
O=C(COC(=O)c1ccc([N+](=O)[O-])o1)c1ccccc1	-20%
Cc1ccc(S(=O)(=O)N2CCC(C(=O)Nc3ncccc3O)CC2)cc1	3%
CCOC(=O)C(Cc1ccccc1)(Cc1ccccc1)C(C)=O	-10%
COC(=O)C1(C(=O)OC)C/C=C\C/C=C\c2ccccc2C1C[N+](=O)[O-] (configuration not stated)	-10%
Cc1nn(CC(=O)Nc2ccc(S(N)(=O)=O)cc2)c(=O)c2ccccc12	7%
NC(=O)NC(=O)COC(=O)c1ccc(Cl)c(S(=O)(=O)N(Cc2ccccc2)c2ccc(Cl)cc2)c1	-9%
COc1ccc(C(=O)Nc2cc3c4c(c2)CC(=O)N4CCC3)c(OC)c1	-13%
O=C(COC(=O)c1ccc(Br)cc1)Nc1ccccc1Br	-10%
CCCCCCCC[C@@H](O)/C=C/C=C/C=C\[C@@H](O)CCCC(=O)O	11%
Cc1ccc(N(C)C(=O)Cn2cnc3onc(-c4ccc(F)cc4)c3c2=O)cc1C	4%
CC(NC(=O)C(=O)Nc1c2c(nn1-c1ccc(F)cc1)CSC2)c1ccccc1 (configuration not stated)	5%
CN(Cc1ccccc1)S(=O)(=O)c1ccc(Cl)c(C(=O)N2CCC2)c1	2%
O=[N+]([O-])c1ccc(Nc2ccccn2)c([N+](=O)[O-])c1	9%
CC(C)(C)/C(O)=C/c1nc2ccccc2[nH]c1=O	-1%
CC(C)=CCC/C(C)=C/CNC(=O)CC1C[C@H](C(=O)N2CCOCC2)[C@@]2(C)c3[nH]c4ccccc4c3CCN2C1=O (some centres not stated)	-4%
N#Cc1cnc(N)c(Br)c1	-11%

# A stretch of the results above, for reference:
Molecule	VDR inh
O=[N+]([O-])c1ccc(Nc2ccccn2)c([N+](=O)[O-])c1	9%
CC(C)(C)/C(O)=C/c1nc2ccccc2[nH]c1=O	-1%
CC(C)=CCC/C(C)=C/CNC(=O)CC1C[C@H](C(=O)N2CCOCC2)[C@@]2(C)c3[nH]c4ccccc4c3CCN2C1=O (some centres not stated)	-4%
N#Cc1cnc(N)c(Br)c1	-11%

# Following part:
Molecule	VDR inh
CCNC(=S)Nc1cc(C)ccn1	-8%
COc1ccc(Cn2ccc3nc(C)c(C(=O)N4CCN(c5ccc(OC)cc5)CC4)cc3c2=O)cc1	?
c1ccc(Oc2nc(N3CCOCC3)nc(N3CCOCC3)n2)cc1	-9%
Nc1nc(SCC(=O)NCC2CCCO2)[nH]c(=O)c1NC(=O)c1ccco1 (configuration not stated)	-26%
CCCc1[nH]nc2c1C(c1ccc(OCCN3CCOCC3)c(OC)c1)C(C#N)=C(N)O2 (configuration not stated)	-10%
CC(=O)c1ccc(NC(=O)c2nc3ccccc3n(C)c2=O)cc1	-6%
